# Biofilm kill mix = mixture kills Candida albicans biofilm cells; C. albicans biofilm persisters + clotrimazole, fluorescence viability; primary screen in compound mixtures of four per well; inhibition, % at 7.6 µM; actives 0.02% (n = 120,000);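 active means inhibition above 30.3% in the primary screen of four-compound pools, then above 30% when the compound was retested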;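 further: compounds exposed to preformed 24 h biofilms for 48 h; the number belongs to the whole pool; some results filed as inactive read as strong as hits; inactives centre near 12; 0% = biofilm with clotrimazole alone and 100% = kill control; retested singly at about 60 µM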
#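 Test system: C. albicans CAF4-2 wild-type biofilms; buffer or medium: RPMI/MOPS medium, pH 7.0; schedule: 24 h biofilm formation, then 48 h compound exposure, 37 °C; detection: Alamar Blue fluorescence; measure: percent inhibition of biofilm viability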
# Numbers without * were called inactive. Some of the compounds tested, so the mix of outcomes need not match the whole.
# A first look (3 entries):
canonical_smiles	Biofilm kill mix
O=C(O)c1ccc(C2SCC(=O)N2Cc2ccco2)cc1 (stereo not given)	0
Cn1c(SCc2ccc(Cl)cc2)nnc1C1CC1	8
O=C(NCC(O)COc1ccc([N+](=O)[O-])cc1)c1ccccc1 (stereo not given)	3

# The list itself, repeating the preview:
canonical_smiles	Biofilm kill mix
O=C(O)c1ccc(C2SCC(=O)N2Cc2ccco2)cc1 (stereo not given)	0
Cn1c(SCc2ccc(Cl)cc2)nnc1C1CC1	8
O=C(NCC(O)COc1ccc([N+](=O)[O-])cc1)c1ccccc1 (stereo not given)	3
CCc1ccc(NS(=O)(=O)c2ccc3[nH]cc(C(=O)N4CCc5ccccc54)c(=O)c3c2)cc1	-7
CN1CCN(C(=O)C2=C[C@H](C(C)(C)C)C[C@H](OCCCCO)O2)CC1	13
COC(=O)c1cc(C(=O)OCC(=O)Nc2cc(C)on2)cc([N+](=O)[O-])c1	19
CCCCc1c(C)nc(N2CCCC2)[nH]c1=O	9
O=C(Nc1ccccc1)/C(=C/c1cccc(Br)c1)NC(=O)c1ccco1	9
CCOC(=O)C1=C(O)/C(=C/c2ccc(OCC(=O)O)c(OC)c2)SC1=Nc1ccc(OCC)cc1	20
CCOC(=O)c1cc(-c2ccccc2)sc1NC(=O)CSc1nnc(N)s1	-5
OCC(O)C(O)C(O)C(O)c1nc2ccccc2[nH]1 (stereo not given)	5
O=C(NC1(C(F)(F)F)OCCO1)c1ccc(F)cc1	4
COc1ccccc1NC(=O)N1CCN(CCc2ccccc2)CC1	24
Cc1cc(C)n2nc(N)c(N=Nc3ccc4c(c3)OCO4)c2n1	15
O=C(Nc1ccc(NC(=O)c2ccco2)c(Cl)c1)c1ccc2c(c1)OCCO2	19
COC(=O)CCCC1=CC2=C(c3ccccc3)C(=O)C(C)(OC(=O)C3CCCC3)C(=O)C2=CN1CCN1CCOCC1 (stereo not given)	13
Cc1cc(=O)oc(C)c1C(=O)Nc1ccc(N(C)C)cc1	24
Cn1c(=O)c2c(ncn2CC(O)CNc2cccc(Cl)c2)n(C)c1=O (stereo not given)	18
O=C(CN1CCC(c2nc3ccccc3s2)CC1)N1CCCCC1	3
CC(=O)Nc1ccc2nc(NC(=O)COc3ccc([N+](=O)[O-])cc3)sc2c1	30
O=[N+]([O-])c1cc(-c2n(-c3ccccn3)c3ccccc3[n+]2-c2ccccn2)ccc1Cl	16
CCn1ccnc1CN(C)Cc1cn(-c2ccc(C)cc2)nc1-c1ccc(F)cc1	16
CCC(C)(C)NC(=O)c1ccc(Br)o1	6
COc1ccc(-c2ccc(CNCCCN3CCOCC3)o2)cc1Cl	15
CCn1cc(S(=O)(=O)CC(=O)Nc2cccc(C)c2)c2ccccc21	32
CC(=O)Nc1ccc(CN2CCc3c([nH]c4ccccc34)C2c2ccccn2)cc1 (stereo not given)	4
COc1ccc(/C=N/NC(=O)C2C(C=C(Cl)Cl)C2(C)C)c(OC)c1 (stereo not given)	17
CCSC1=NCCN1S(=O)(=O)c1ccc(F)cc1	30
CCCc1nc2oc3cc(OC)ccc3c(=O)c2c(=O)n1CCc1ccccc1	29
O=C(C[n+]1cccc2ccccc21)c1ccc([N+](=O)[O-])cc1	9
COc1ccc2[nH]c(C(=O)NCCN3CCCCC3)cc2c1	2
CC(C)C1CC(CCN)(c2ccccc2)CCO1 (stereo not given)	4
CCC(=O)Nc1c(C(=O)N2CCN(c3ccccn3)CC2)cnn1-c1ccc(Cl)cc1	12
COC(=O)c1ccccc1OS(=O)(=O)N(C)C	10
CCCCCCCSc1nsc(N)n1	13
CCc1nc(C)ccc1OC(=O)C12CC3CC(CC(C3)C1)C2	19
Cc1ccc(NS(=O)(=O)c2cc([N+](=O)[O-])ccc2NNC(=S)Nc2cc(C)ccc2C)c(C)c1	15
O=C(c1cccc2ccccc12)C1CCCN(C(=O)CCCn2cncn2)C1 (stereo not given)	28
COc1ccc(O)c(C(=O)c2coc(=N)c(C(=O)Nc3ccc(SC(F)F)cc3)c2)c1	-9
CS(=O)(=O)N(CC(=O)NCc1ccc2c(c1)OCO2)c1cccc(Cl)c1	1
COc1ccc(OC)c(S(=O)(=O)NCc2cn3cccc(C)c3n2)c1	10
O=C(Oc1cccc2c(OC(=O)N3CCCC3)cccc12)N1CCCC1	8
OCCN1CCN(C(=S)Nc2ccccc2)CC1	6
COc1ccccc1NC(=O)CSc1ccc2nnc(-c3ccc(C)cc3)n2n1	15
CCOc1ccccc1NC(=O)COC(=O)CSc1ccc(Cl)cc1	16
COc1cccc(NC2=C(Cl)C(=O)OC2OC(=O)c2ccco2)c1 (stereo not given)	15
COc1ccc(C2c3ccc4ccccc4c3Oc3ncn4nc(Cc5ccccc5)nc4c32)cc1OC (stereo not given)	12
Cc1cc(C)c(NC(=O)Nc2ccccc2C)c(Cl)c1	13
COc1cccc(N2CCN(C(=O)c3ccc4nc(N5CCC(C)CC5)sc4c3)CC2)c1	33
C=CCNC(=S)Nc1sc2c(c1C(=O)OCC)CC(C)(CC)OC2 (stereo not given)	19

# (list continues)
canonical_smiles	Biofilm kill mix
CCN(CC)C(=O)c1ccccc1NC(=O)c1ccccc1	-6
CCOCC(=O)Nc1cc(C(=O)NCCC(C)C)ccc1Cl	27
Cc1ccccc1NC(=O)C1CCCN1S(=O)(=O)c1ccc2c(c1)n(C)c(=O)c(=O)n2C (stereo not given)	19
CC1(C)CC(NC(=O)Cc2ccccc2[N+](=O)[O-])CC(C)(C)N1	12
Cc1ccc(C(=O)COc2ccc3ccc(=O)oc3c2)cc1	27
COc1ccccc1OC1OC2COC(c3ccco3)OC2C(O)C1NC(C)=O (stereo not given)	-3
COc1cccc(CN2CCC(C(=O)N3CCN(c4ccccc4F)CC3)CC2)c1	7
CCOc1ccc(CCNC(=O)C2CCN(S(=O)(=O)N3CCC(C)CC3)CC2)cc1OCC	6
NC(=O)CC(NC(=O)Cc1cccc2ccccc12)c1ccc(NC2CCCCC2)c([N+](=O)[O-])c1 (stereo not given)	11
O=C(NCCCn1ccnc1)C(=O)NCC1OCCN1S(=O)(=O)c1cc(F)ccc1F (stereo not given)	27
O=C(NCc1cccs1)Nc1ccc(Cl)cc1	-7
CC(C)CCOc1ccccc1C(N)=O	19
CC(=O)Nc1ccc(S(=O)(=O)N2CCN(Cc3cccs3)CC2)cc1	1
Cn1ccnc1C(=O)c1cccc([N+](=O)[O-])c1	8
O=C(CCc1nnc(CCCc2ccccc2)o1)NC(C1CC1)C1CC1	19
O=C(COC(=O)/C=C/c1ccc(F)cc1)NCc1ccco1	2
CC(C)(C)CC(=O)Nc1ccccc1N1CCN(c2ccccc2)CC1	17
O=C(C(=O)N1CCc2ccccc2C1)c1cn(CC(=O)N2CCCC2)c2ccccc12	14
Cc1cc(SCC#N)nc2ccccc12	18
Cc1ccc(N(C)C(=O)c2ccc3c(Cl)c4c(nc3c2)CCC4)cc1C	11
CC(=O)Nc1c(F)cc(Br)cc1F	20
COC(=O)c1cccc(NC(=S)NCc2ccco2)c1	12
CCc1cc2c(SCC(=O)c3ccccc3)ncnc2s1	14
COc1cc(C(=O)Nc2ccc3c(c2)Cc2ccccc2-3)cc(OC)c1OC	12
OCCC1CN(Cc2ccsc2)CCN1C1CCCC1 (stereo not given)	25
COCCN1CCN(Cc2nc(Cc3ccc(OC)c(OC)c3)no2)CC1	-3
S=c1[nH]nc(CCc2ccc(Cl)cc2)o1	18
C/C(=N\NC(N)=S)c1ccc(Cl)s1	-11
Cc1ccccc1Nc1c(F)c(F)c(F)c(F)c1C(=O)O	22
O=C(c1nn(-c2ccccc2)c(=O)c2ccccc12)N1CCN(c2ncccn2)CC1	13
O=C(COc1cccc2cccnc12)N1CCc2ccccc21	15
Nc1ccc(NC(=O)c2ccco2)c(Cl)c1	13
O=C(CSc1nc(-c2ccc(F)cc2)cs1)NCCN1C(=O)CSC1=O	4
CCOCC(=O)Nc1ccc([N+](=O)[O-])cc1C	14
CCCCCN1C/C=C\C(c2ccc(OC)cc2)N(Cc2ccc(F)cc2)C(=O)C1 (stereo not given)	16
CCOC(=O)c1c(C)nc(SC)c(C#N)c1-c1ccccc1	17
CCOC(=O)c1oc2ccccc2c1CN1CCCCC1	17
O=C(CSc1nnc(-c2ccccn2)o1)Nc1ccccc1	4
COc1ccccc1NC(=O)CN(Cc1ccccc1)S(C)(=O)=O	14
Cc1cc(-c2ccccc2)n(-c2cc(N/N=C/c3ccccc3O)ncn2)n1	15
CCOC(=O)N1C2=NC(C(=O)OC)=C(C(=O)OC)[C@@H]3N(C)c4ccccc4[C@]23C[C@H]1C(=O)OC	8
COC(C[C@@H]1O[C@H]1[C@@H](O)[C@@H](C)OCc1ccccc1)OC	12
Nc1nc(COc2ccc(F)cc2Cl)nc(N2CCCCC2)n1	13
CSC1=NSC2=NC(=O)/C(=C\c3coc4ccccc4c3=O)C(=N)N12	13
CCOC(=O)c1cc(-c2cccc(C(F)(F)F)c2)nc2nc(SC)[nH]c(=O)c12	15
CCO[C@@H]1OC(C(=O)N2CCCCCCC2)=C[C@H](c2ccc3c(c2)OCO3)[C@H]1CCCO	4
CCOc1cccc(C2C(C(=O)c3cccs3)=C(O)C(=O)N2Cc2cccnc2)c1 (stereo not given)	18
Cc1ccc(N2C(=O)[C@@H]3C(c4cccnc4)=NO[C@@H]3C2=O)c(C)c1	2
Cc1ccc(C(=O)Oc2coc(CSc3nnc(NC(=O)c4cccs4)s3)cc2=O)cc1C	8
C=CCOc1ccc(/C=C2\SC(=Nc3cccnc3)NC2=O)cc1	12

# Additional structures.
canonical_smiles	Biofilm kill mix
O=C(O)c1ccc2c(=O)n3cc(C(=O)c4ccccc4O)cc(Cl)c3nc2c1	16
O=C(CCC(=O)N(CC(=O)NC1CCCCC1)CC1CCCO1)Nc1nccs1 (stereo not given)	10
COc1ccc(OC)c(/C=N/N=C(\N)c2nonc2N)c1	23
O=C(NC(=S)Nc1ccc2c(c1)OCCO2)c1ccccc1F	-14
CC1=CS(=O)(=O)CC1SC(=S)N(C)C1CCS(=O)(=O)C1 (stereo not given)	11
Cc1cc(NC(=O)/C=C/c2ccccc2Cl)n(-c2nc3ccccc3[nH]2)n1	16
CNc1nc(-c2ccc3c(c2)CCN3S(=O)(=O)c2ccccc2)c(C)s1	10
O=C(c1cc(Cl)cc(Cl)c1)N1CCC(=O)N(C(COCc2ccccc2)Cc2ccccc2)CC1 (stereo not given)	7
O=C(Nc1nncs1)c1cccnc1Cl	13
O=C(CN1CCN(Cc2ccc(Cl)cc2)C1=O)NCCN1CCCC1	21
COc1cc(C(=O)NNC(=S)NC(=O)c2ccc(F)cc2)cc(OC)c1OC	13
Cc1ccc(NC(=O)CN2CCCC2)c2c1CC(C)(C)O2	16
CC(=O)c1cc(C(=O)N2CCc3c([nH]c4ccccc34)C2C2CCCCC2)[nH]n1 (stereo not given)	1
O=C(c1nc2nc(-c3cccs3)cc(C(F)(F)F)n2n1)N1CCN(Cc2ccccc2)CC1	14
CCOC(=O)C[N+](CC)(CC)CC#Cc1ccccc1	13
O=C(Nc1nc2cc3c(cc2s1)OCO3)c1ccc(N2C(=O)CCC2=O)cc1	19
CCC1COC(c2cccn2Cc2ccccc2Cl)=N1 (stereo not given)	6
Cc1cnc(NC(=O)CCNC(=O)c2ccccc2Cl)s1	3
O=C(CSc1nnc(Cc2ccc(Cl)cc2)o1)Nc1ccccc1	4
C/C(N)=C(/C#N)C(=O)CSc1nc2ccccc2n1CC(C)C	11
COC(=O)C1=C(C)N(CCc2cc(OC)c(OC)c(OC)c2)C(=O)N[C@H]1c1cccs1	7
CS(=O)(=O)c1nc2c(cc1C#N)CCCC2	-1
COC(=O)CNC(c1ccccc1)c1cc(Br)ccc1NS(=O)(=O)c1ccc(C)cc1 (stereo not given)	14
COCCCn1c(SCC(=O)NNC(=O)c2cccc(O)c2)nnc1-c1ccncc1	9
Cc1ccccc1C(=O)OCc1nnc(-c2ccc(Cl)cc2)o1	13

# Part of the list above, as labelled records:
SMILES: Cc1ccccc1Nc1c(F)c(F)c(F)c(F)c1C(=O)O
  Biofilm kill mix: 22
SMILES: COc1cc(C(=O)Nc2ccc3c(c2)Cc2ccccc2-3)cc(OC)c1OC
  Biofilm kill mix: 12
SMILES: O=C(C(=O)N1CCc2ccccc2C1)c1cn(CC(=O)N2CCCC2)c2ccccc12
  Biofilm kill mix: 14
SMILES: O=C(Nc1nncs1)c1cccnc1Cl
  Biofilm kill mix: 13

# Remaining list, next part
canonical_smiles	Biofilm kill mix
COC(=O)c1nn(-c2nc(-c3cccc(OC)c3)cc(C(F)(F)F)n2)cc1[N+](=O)[O-]	2
Cc1ccc(NC(=O)c2ccccc2NS(=O)(=O)c2ccc(F)cc2)cc1S(=O)(=O)N1CCCCC1	8
Cc1nc(N2CCOCC2)nc(OC(C)C)c1[N+](=O)[O-]	12
Cc1c(Cl)cccc1NC(=S)NC1CCN(Cc2ccccc2)CC1	9
COc1cc(NC(=O)c2ncn[nH]2)cc(OC)c1OC	6
Cc1ccc(NC(CC(=O)c2ccccc2)C(=O)O)cc1Cl (stereo not given)	0
Cc1ccc2c(c1)/C(=C/c1ccco1)C(=O)N2	18
COc1ccc(CC(=O)Nc2ccc(N3CCCCC3)cc2)cc1	19
Cc1ccc(SC(C)C(=O)Nc2ccccc2-c2ccccc2)cc1 (stereo not given)	12
COc1cc(NC(=O)COc2ccc(Br)cc2)ccc1NC(=O)C(C)C	5

# High-throughput results: PubChem, PCMD
